High-throughput results from PubChem BioAssay.
PrP 5UTR inh – suppresses PrP 5' UTR mRNA reporter expression; 0.35% of 340,000 active; cell-based PrP 5' UTR mRNA reporter, plate reader; inhibition, % (test concentration not listed);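 active means every replicate at 50% or more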;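 further: 0 = median of the neutral control wells; tested in H4 reporter cells; numbers are from one replicate; inactives centre near -14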
Autofluor counter – flagged as autofluorescent in microsphere protease counterscreen. 3.1% of 360,000 active. fluorescence intensity (test concentration not listed). compound autofluorescence counterscreen, microsphere flow cytometry; hits give high values;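 active means at least 3 SD above the mean of all compounds, about 16000 in these data; inconclusive means too few beads counted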;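 further: 100 nL of 1 mM stock went into each well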
The depositor's hits bear a star; ? = inconclusive. A portion of the library; the hit share may differ from the screen's.

SMILES	PrP 5UTR inh	Autofluor counter
C#CCOCCOCCOCCNc1nc(N2CCOCC2)nc(N2CCN(C(=O)[C@H](CO)n3cc([C@@H](N)C(C)C)nn3)CC2)n1	-2	3862
CC1(C)O[C@@H]2C[C@H]3[C@@H]4C[C@H](F)C5=CC(=O)CC[C@]5(C)[C@H]4[C@@H](O)C[C@]3(C)[C@]2(C(=O)CO)O1	-7	5957
COc1ccc(C2C(C)C(=O)C(C)C(c3ccc(OC)cc3)N2N=O)cc1 (configuration not stated)	-5	4073
O=C(NCCCN1CC1)Nc1cccc2ccccc12	-6	3037
CCC(CC)CN1CCC(CN2CCNC(=O)C2=O)CC1	4	3203
N=C1C=CC(=C(c2ccc(N)cc2)c2ccc(N)cc2)C=C1	-14	2957
CCN1CCC[C@H]1CNC(=O)c1c(OC)ccc(Br)c1OC	4	4062
O=[N+]([O-])c1ccccc1N=Nc1c(O)[nH]c2ccc(F)cc12	39	3849
Cc1cccc(-n2nc3c(c2NC(=O)c2ccc(S(=O)(=O)N4CCOCC4)cc2)CSC3)c1C	-12	23238*
CSC1(SC2=NCCN2)SC2(NCCN2)S1	-16	2867
NCCCC[C@@H]1NC(=O)[C@H](CCC(=O)O)NC(=O)c2cc([N+](=O)[O-])cc(I)c2OCC[C@@H](C(N)=O)NC1=O	-7	4295
CCCCNc1c(-c2ccc(SC(C)CC)cc2)nc2cnccn12 (configuration not stated)	-8	3627
NS(=O)(=O)c1cccc(NC(=O)CSc2nnc(-c3ccccc3)o2)c1	-5	2966
C[C@@]12C(=O)N(Cc3ccccc3)CC(=O)N1[C@H]1c3ccccc3OC[C@@H]1[C@@H]2c1ccccc1	-14	4305
C=CC[C@@H](CC(=O)OC(C)(C)C)C(=O)OC[C@H]1CCCN1C(=O)[C@@H](CC=C)CC(=O)NCCO	-15	4210
CCN(Cc1nc2ccccc2c(=O)[nH]1)C(=O)c1ccc(C)c(NC(=O)c2ccco2)c1	-15	3695
CCC(CCCO)CCC[C@H](C)CCC1OCCO1 (some centres not stated)	-6	3817
NC(=O)c1ncn([C@@H]2O[C@H](CNC(=O)[C@@H](N)Cc3cccnc3)[C@@H](O)[C@H]2O)n1	-23	3842
O=C(CN1C(=O)NC2(CCCc3ccccc32)C1=O)Nc1ccccc1OC(F)F (configuration not stated)	-6	3866
CC(O)C1C=CC=CC(=O)OC2CC3OC4C5OC5(C)CCC4(COC(=O)C4OC4(C)C(O)CO1)C2(C)C31CO1 (configuration not stated)	83*	3633
C[C@H](CO)N1C[C@H](C)[C@@H](CN(C)C(=O)NC2CCCCC2)Oc2c(NS(=O)(=O)c3cccs3)cccc2C1=O	0	3979
CCCCCC(=O)Nc1cc(S(=O)(=O)O)cc2cc(S(=O)(=O)O)cc(O)c12	-22	2840
O=P1(O)Cc2ccccc2-c2ccccc21	-10	4290
O=C1NC(=O)N2CCSC2(Cc2ccccc2)N1 (configuration not stated)	-19	5328
Cc1cc(C(=O)N/N=C/c2ccc3ccccc3c2)n[nH]1	-14	4694
O=C(C[C@H]1C/C=C\CC[C@H](Cc2ccc(F)cc2)C(=O)OC[C@H]2CCCN2C1=O)NCCO	8	2931
CC(=O)N[C@H]1[C@H]([C@H](O)[C@H](O)CO)O[C@](O)(C(=O)O)C[C@@H]1O	-24	6265
C=CC[C@@H](CC(=O)N[C@H](CO)Cc1ccccc1)C(=O)N[C@H](C)COC(=O)[C@@H](CC=C)Cc1ccc(F)cc1	-29	3404
C[C@H](CO)N1C[C@H](C)[C@@H](CN(C)S(=O)(=O)c2cccs2)Oc2c(NC(=O)Cc3ccccc3)cccc2C1=O	-23	4119
C[C@H]1COC(=O)[C@H](Cc2ccc(F)cc2)C/C=C\C[C@H](CC(=O)N(CCO)Cc2ccccc2)C(=O)N1	-7	3434
CCC[C@H]1CCCC/C=C\CCCC(=O)OCCN1C(=O)OC(C)(C)C	-20	3170
O=C(Nc1cccc(C(=O)N2CCCCC2)c1)C1CC1	-17	3430
CN(C/C=C/c1ccccc1)Cc1cccc2ccccc12	-5	5750
Cc1cn(CC(=O)NCCNc2ccc([N+](=O)[O-])cn2)c(=O)[nH]c1=O	-16	4131
C[C@@]12C(=O)NCC(=O)N1[C@@H]1c3cc(Br)ccc3OC[C@@H]1[C@@H]2c1ccccc1	-31	3667
COc1ccc([C@H]2CC(=O)C=C(c3ccccc3-c3ccccc3)C2)cc1	-17	3808
COc1ccccc1-c1sc2ccccc2c1C#CC1(O)CCCCC1	8	2834
COc1ccc2c(c1)[C@H]1[C@H](CO2)[C@H](c2ccccc2)[C@]2(C)C(=O)Nc3cc(Cl)ccc3C(=O)N12	-109	3764
C#CCn1cc(/C=N/NC(=O)c2cc3ccccc3o2)c2ccccc21	-4	2036
C/C(=N\NC(=O)c1cccc(F)c1)c1ccc(NC(=O)Cc2ccccc2)cc1	-18	6097

17 successive entries already listed:
SMILES	PrP 5UTR inh	Autofluor counter
C[C@H](CO)N1C[C@H](C)[C@@H](CN(C)C(=O)NC2CCCCC2)Oc2c(NS(=O)(=O)c3cccs3)cccc2C1=O	0	3979
CCCCCC(=O)Nc1cc(S(=O)(=O)O)cc2cc(S(=O)(=O)O)cc(O)c12	-22	2840
O=P1(O)Cc2ccccc2-c2ccccc21	-10	4290
O=C1NC(=O)N2CCSC2(Cc2ccccc2)N1 (configuration not stated)	-19	5328
Cc1cc(C(=O)N/N=C/c2ccc3ccccc3c2)n[nH]1	-14	4694
O=C(C[C@H]1C/C=C\CC[C@H](Cc2ccc(F)cc2)C(=O)OC[C@H]2CCCN2C1=O)NCCO	8	2931
CC(=O)N[C@H]1[C@H]([C@H](O)[C@H](O)CO)O[C@](O)(C(=O)O)C[C@@H]1O	-24	6265
C=CC[C@@H](CC(=O)N[C@H](CO)Cc1ccccc1)C(=O)N[C@H](C)COC(=O)[C@@H](CC=C)Cc1ccc(F)cc1	-29	3404
C[C@H](CO)N1C[C@H](C)[C@@H](CN(C)S(=O)(=O)c2cccs2)Oc2c(NC(=O)Cc3ccccc3)cccc2C1=O	-23	4119
C[C@H]1COC(=O)[C@H](Cc2ccc(F)cc2)C/C=C\C[C@H](CC(=O)N(CCO)Cc2ccccc2)C(=O)N1	-7	3434
CCC[C@H]1CCCC/C=C\CCCC(=O)OCCN1C(=O)OC(C)(C)C	-20	3170
O=C(Nc1cccc(C(=O)N2CCCCC2)c1)C1CC1	-17	3430
CN(C/C=C/c1ccccc1)Cc1cccc2ccccc12	-5	5750
Cc1cn(CC(=O)NCCNc2ccc([N+](=O)[O-])cn2)c(=O)[nH]c1=O	-16	4131
C[C@@]12C(=O)NCC(=O)N1[C@@H]1c3cc(Br)ccc3OC[C@@H]1[C@@H]2c1ccccc1	-31	3667
COc1ccc([C@H]2CC(=O)C=C(c3ccccc3-c3ccccc3)C2)cc1	-17	3808
COc1ccccc1-c1sc2ccccc2c1C#CC1(O)CCCCC1	8	2834

(cont.)
SMILES	PrP 5UTR inh	Autofluor counter
COCC(C)n1c(SCC(=O)Nc2nccs2)nc2ccccc2c1=O (configuration not stated)	1	3681
O=C1C(=O)c2ccccc2C(O)=C1CC=C(Cl)Cl	-16	3978
C=C[C@H]1CN2CC[C@H]1C[C@@H]2[C@@H](O)c1ccnc2ccccc12	3	6116
CC1CCCC(NC(=O)COC(=O)c2ccc3c(c2)OCCO3)C1C (configuration not stated)	-17	4291
O=C(CN1C(=O)NC2(CCCc3ccccc32)C1=O)c1ccc(F)cc1 (configuration not stated)	10	2959
C=C[C@@]12CN(C)[C@H]3[C@H]1[C@@]1(C(=O)Nc4ccccc41)C1CC2[C@@H]3CO1	-18	5907
COc1ccc(S(=O)(=O)N(C)C[C@H]2Oc3ccc(NS(=O)(=O)c4cccs4)cc3C(=O)N([C@H](C)CO)C[C@@H]2C)cc1	-7	3814
C[C@H](CO)N1C[C@H](C)[C@@H](CN(C)C(=O)NC2CCCCC2)Oc2ccc(NC(=O)CCC(F)(F)F)cc2C1=O	0	2904
C[C@@H](CSc1ccc(Br)cc1)CN1CC[C@H](C(C)(C)C)CCC1=O	-17	3481
CC(C)(C)OC(=O)N(CCc1ccccc1)Cc1ccc(OCc2cccc(NC(=O)C3CCC3)c2)cc1	-23	3346
O=C1CSC(=S)N1N=Cc1c(O)ccc2ccccc12	-7	3735
CCN(CC)CCCN=C1N[C@@H](c2cccc(C(F)(F)F)c2)C(C(=O)OC)=C(C)N1CC	-7	3989
C=CCn1c2ccccc2c(=O)c2cc(C#Cc3ccccn3)ccc21	-55	3790
CN/C(=C\[N+](=O)[O-])NCCSCc1ccc(CN(C)C)o1	-15	4318
CCOC(=O)CCc1ccc(NC(=O)/C=C/c2ccc([N+](=O)[O-])o2)cc1	-24	4312
CC[n+]1c(-c2ccccc2)c2cc(N)ccc2c2ccc(N)cc21	-16	2025
COc1cc2cc(c1Cl)N(C)C(=O)CC(OC(=O)C(C)N(C)C(C)=O)C1(C)OC1C(C)C1CC(O)(NC(=O)O1)C(OC)C=CC=C(C)C2 (configuration not stated)	53*	3502
C=CC[C@@H](CC(=O)N[C@H](CO)Cc1ccccc1)C(=O)N[C@@H](COC(=O)[C@H](CC=C)CC(=O)OC(C)(C)C)Cc1ccccc1	-22	4242
NC[C@H](Cc1ccccc1)NCCCCC1CCCCC1	-25	4287
CCOc1ccc(CCN2C(=S)N([C@@H](CC(C)C)CN3CCCC3CN3C(=S)NC[C@@H]3Cc3ccc(O)cc3)C[C@@H]2Cc2ccccc2)cc1 (some centres not stated)	-10	3781
C[C@H](CO)N1C[C@H](C)[C@@H](CN(C)C(=O)NC2CCCCC2)Oc2c(NC(=O)c3ccncc3)cccc2C1=O	-15	3212
Cc1ccccc1OCCC(=O)Nc1cc(S(=O)(=O)N2CCCCC2)ccc1N1CCN(C)CC1	-5	3880
C[C@H](CO)N1C[C@H](C)[C@@H](CN(C)S(=O)(=O)c2cccs2)Oc2c(NC(=O)Nc3ccc4c(c3)OCO4)cccc2C1=O	-7	3676
C#CCOCCOCCOCCNc1nc(N2CCN(C(=O)Cn3cc(CCCN=C(N)N)nn3)CC2)nc(N2CCN(C(=O)[C@H]([C@@H](C)O)n3cc(CCCCN)nn3)CC2)n1	4	3837
C#CCOCCOCCOCCNc1nc(N2CCN(C(=O)CCCCCCCCCCNC(=O)[C@H](CCCCN)n3cc(CCO)nn3)CC2)nc(N2CCN(C(=O)CCCCCCCCCCNC(=O)[C@@H]([C@H](C)O)n3cc(C)nn3)CC2)n1	5	4691
C#CCOCCOCCOCCNc1nc(N2CCN(C(=O)Cn3cc(CCO)nn3)CC2)nc(N2CCN(C(=O)[C@H]([C@@H](C)CC)n3cc(CCCN=C(N)N)nn3)CC2)n1	-26	3691
CCOC(=O)C1=CC[C@H]2c3c(c4ccccc4n3C)C(=O)C1N2C(=O)OC(C)(C)C	-9	3844
Cc1nc(SCc2nc3c([N+](=O)[O-])cccc3[nH]2)c2oc3ccccc3c2n1	8	2879
COc1ccccc1NS(=O)(=O)c1cccc(C(=O)N/N=C(\C)c2ccncc2)c1	-24	5205
C/C(=N\OCC(=O)OC(C)C(=O)Nc1ccc(C)c(S(=O)(=O)N2CCOCC2)c1)c1ccc2c(c1)OCO2 (configuration not stated)	-19	5251
O=C(NN=Cc1ccc(N(CCCl)CCCl)cc1Cl)c1cccnc1	3	4126
Cc1ccc(C(c2ccc(C)c(C)c2)C(O)C2OC(=O)C(O)C2O)cc1C (configuration not stated)	-15	3608
COc1ccc(NC(=O)N(C)C[C@H]2Oc3ccc(NC(=O)Cc4ccccc4)cc3C(=O)N([C@H](C)CO)C[C@@H]2C)cc1	-15	3732
CCOC(=O)[C@@H]1[C@H]2COc3cc(OC)ccc3[C@H]2N2C(=O)N(c3ccc(C)cc3)C(=O)[C@]12C	-20	3813
COc1cc(C(=O)NC2CCN(C)CC2)ccc1Nc1ncc2c(n1)N(C1CCCCC1)CCC(=O)N2C	12	3263
O=C(N/N=C/c1ccsc1)c1ccc2c(c1)OCO2	-53	?
CCCNC(=O)N1[C@H]2CC[C@@H]1C(C(=O)OC)=C(c1ccc(Cl)c(C(F)(F)F)c1)C2	6	2816
CCOc1cc(/C=N/NC(=O)c2ccc(-c3csc(Nc4ccc(C)cc4)n3)cc2)ccc1OCC(=O)O	-26	5248
COC(=O)c1ccc(/C=C/c2c(-c3ccc(OC)cc3)sc3ccccc23)cc1	-18	2882
COc1ccc([C@@H]2CC=C(C(=O)O)[C@H](c3cccc(Cl)c3)N2S(=O)(=O)c2ccc(Cl)cc2)cc1	-29	3922
O=C1C=C(c2ccc(F)nc2)C[C@@H](c2ccc3c(c2)OCO3)C1	-14	3675
C#CCOCCOCCOCCNc1nc(N2CCN(C(=O)[C@H](CCCCN)n3cc(CN)nn3)CC2)nc(N2CCN(C(=O)[C@H](CO)n3cc([C@@H](N)C(C)C)nn3)CC2)n1	13	2828
O=C(N/N=C/c1ccc2c(c1)OCO2)C(=O)Nc1ccccc1Cl	-18	6046
c1ccc(C[C@H]2CN=C(Nc3ccccc3)N2CC2CCC2)cc1	-17	4350
O=C1c2ccccc2/C(=C\C#Cc2ccccn2)N1c1ccccc1	-32	2979
CCSC1OC(C(COC(C)=O)OC(C)=O)C(OC(C)=O)C1NC(C)=S (configuration not stated)	11	4102
CCOc1ccc(CCN2C(=O)C(=O)N([C@@H](Cc3ccc(O)cc3)CN3CCC[C@@H]3CN3C(=O)C(=O)NC[C@@H]3Cc3ccccc3)C[C@@H]2Cc2ccccc2)cc1	-3	2938
COc1ccc(/C=C2\Oc3ccccc3C2=O)cc1	30	4151
CCCCCC#CCN1CCN(C23CC4CC(CC(C4)C2)C3)CC1	-10	4760
COC(=O)C1=C(c2ccc(F)cc2OCc2ccccc2)C[C@@H]2CC[C@H]1N2C(=O)NCc1ccc(C)cc1	-12	3023
Cc1cs/c(=N\N=C\c2ccccc2)n1Cc1ccco1	-21	2070
C[N+](C)(C)CC1CCCC1=O (configuration not stated)	-10	3427
C/C(CCC(C)C)=N\NC(=O)COc1ccccc1-c1ccccc1	-20	4382
